Screening data (PubChem)
STK33 inh: blocks human STK33 kinase activity. purified STK33, MBP phosphorylation, ADP-Glo luminescence. AID 2661. inhibition, % at 10 µM. Q9BYT3. 0.073% of 320,000 active;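 active = inhibition at or above 25%, using the most active replicate where run in duplicate; inactive = inhibition below 25%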
Target sequence (Q9BYT3 whole entry, looked up): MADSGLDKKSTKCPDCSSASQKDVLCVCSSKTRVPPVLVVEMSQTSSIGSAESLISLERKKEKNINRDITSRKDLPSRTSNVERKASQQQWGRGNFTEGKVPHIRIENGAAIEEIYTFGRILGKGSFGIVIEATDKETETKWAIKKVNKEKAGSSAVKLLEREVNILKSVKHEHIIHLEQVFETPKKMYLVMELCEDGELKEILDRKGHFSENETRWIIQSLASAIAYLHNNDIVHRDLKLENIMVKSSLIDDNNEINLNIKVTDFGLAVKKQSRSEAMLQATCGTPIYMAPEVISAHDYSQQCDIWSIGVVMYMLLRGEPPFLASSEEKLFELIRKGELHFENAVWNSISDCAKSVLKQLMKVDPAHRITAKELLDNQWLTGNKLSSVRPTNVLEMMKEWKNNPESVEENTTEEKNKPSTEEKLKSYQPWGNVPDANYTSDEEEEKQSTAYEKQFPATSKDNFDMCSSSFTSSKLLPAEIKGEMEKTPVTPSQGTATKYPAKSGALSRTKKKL
Numbers without * were called inactive. A portion of the library, and most or all hits are left out here.

COc1ccc(/C=C/C(=O)N(CC(C)C)C2CCS(=O)(=O)C2)cc1 (configuration not stated)
  STK33 inh: -0.5

O=C(Nc1ccccc1-c1nnn(CC(=O)N2CCCc3ccccc32)n1)c1ccco1
  STK33 inh: -2.0

COc1cc(CC(=O)Nc2nc(C)cs2)cc(OC)c1OC
  STK33 inh: -0.6

Cc1ccc(C(=O)CSc2nnc3c4ccccc4nc(Cc4ccccc4)n23)cc1
  STK33 inh: 1.6

O=C(CSc1ccc([N+](=O)[O-])cn1)Nc1ccc(N2CCOCC2)c(Cl)c1
  STK33 inh: 0.3

CCOC(=O)C1=C(CNC(C)(C)CC(C)(C)C)NC(=O)NC1c1cccc([N+](=O)[O-])c1 (configuration not stated)
  STK33 inh: 1.7

O=C(NCc1ccc2c(c1)OCO2)c1ccc2c(c1)C(=O)N(CC1CCCO1)C2=O (configuration not stated)
  STK33 inh: -1.8

N#Cc1ccccc1Oc1ccccc1C=O
  STK33 inh: -0.8

COc1cc(OC)nc(NC(=O)C(C)C)n1
  STK33 inh: -1.1

COc1ccc(Cc2nnc(SC(C)C(=O)Nc3ccc(F)cc3Cl)o2)cc1 (configuration not stated)
  STK33 inh: -2.7

CN1CCN(CC#CCC(O)(c2ccccc2)C2CCCC2)CC1 (configuration not stated)
  STK33 inh: -1.7

CC(OC(=O)c1ccc(NS(=O)(=O)c2ccc3[nH]c(=O)[nH]c3c2)cc1)C(=O)Nc1ccc(Cl)cc1 (configuration not stated)
  STK33 inh: 1.3

O=C(OC(C(=O)NCc1cccs1)c1ccccc1F)c1ccco1 (configuration not stated)
  STK33 inh: -1.2

C/C(=N\NC(=O)c1cccc(S(=O)(=O)N2CCCC2)c1)c1ccco1
  STK33 inh: -0.8

Oc1c(Br)cc2oc3c(c2c1CNCc1ccccc1)CCCC3
  STK33 inh: 0.4

COC(=O)CN(n1cnnc1)S(=O)(=O)c1ccccc1Cl
  STK33 inh: -0.6

Cc1cc(Cl)n2nc(C)c(-c3ccc(Cl)cc3)c2n1
  STK33 inh: 2.5

CCCCc1nnc(SCC(=O)NC2CCCCC2)n1C
  STK33 inh: -1.7

Cc1ccc(NC(=O)c2ccc(NCCN)c([N+](=O)[O-])c2)cc1
  STK33 inh: -1.9

CCOc1ccccc1NC(=O)C(OC(=O)c1ccc(NC(=O)CC#N)cc1)c1ccccc1 (configuration not stated)
  STK33 inh: 0.0

Quoted from the listing:
STK33 inh result of C/C(=N\NC(=O)c1cccc(S(=O)(=O)N2CCCC2)c1)c1ccco1 reads -0.8
STK33 inh result of CN1CCN(CC#CCC(O)(c2ccccc2)C2CCCC2)CC1 (configuration not stated) reads -1.7
STK33 inh result of COC(=O)CN(n1cnnc1)S(=O)(=O)c1ccccc1Cl reads -0.6
STK33 inh result of COc1cc(OC)nc(NC(=O)C(C)C)n1 reads -1.1

Later entries:
CC(C)c1cccc(C(C)C)c1NC(=O)CN1C(=O)NC2(CCCC2)C1=O
  STK33 inh: -2.0

COCc1nnc(NC(=O)c2ccc3c(c2)OCO3)s1
  STK33 inh: 0.3

COc1ccccc1N1CC(C(=O)Nc2nnc(SCC(=O)NCC3CCCO3)s2)CC1=O (configuration not stated)
  STK33 inh: -1.7

CC(C)c1ccc(NC(=O)NC2CCCCC2)cc1
  STK33 inh: 0.2

COc1ccc(NCC(=O)Nc2ccc(Cl)cc2C)c(OC)c1
  STK33 inh: -0.1

Cc1cccc(NC(=O)c2ccc(-c3ccccc3[N+](=O)[O-])o2)c1
  STK33 inh: -2.0

CC1CC(=O)N(c2ccc(NCCc3ccc(O)cc3)c([N+](=O)[O-])c2)C1=O (configuration not stated)
  STK33 inh: 1.0

Cc1ccc(C(=O)NCCSc2ccc(Cl)cc2)cc1S(=O)(=O)Nc1ccccc1
  STK33 inh: -0.8

Cc1cc(=O)oc2cc(OCCSc3nnc(-c4ccccc4)o3)ccc12
  STK33 inh: 1.0

Cc1cc(C(=O)NC(=S)Nc2cccc(NC(=O)C(C)C)c2)ccc1[N+](=O)[O-]
  STK33 inh: 0.2

CCN(CC)S(=O)(=O)c1cccc(C(=O)NCCc2ccccc2)c1
  STK33 inh: -1.3

Cc1cc(NC(=O)CCC(=O)N(CC(=O)NC2CCCC2)Cc2ccc3c(c2)OCO3)no1
  STK33 inh: -1.3

CC(=O)C1(C)OC(N)=C(C#N)C(c2ccccc2)C1(C#N)C#N (configuration not stated)
  STK33 inh: 2.0

COC(=O)c1ccc(/C=N/NC(=O)CC(=O)NC2CCCCC2)cc1
  STK33 inh: -0.2

COc1ccc(NC(=O)c2cnc(NS(=O)(=O)c3ccccc3)nc2)cc1
  STK33 inh: -0.4

COc1ccc(C(=O)NCC(O)COc2ccc(C(C)(C)C)cc2)cc1[N+](=O)[O-] (configuration not stated)
  STK33 inh: 1.1

O=C(COn1nnc2ccc(C(F)(F)F)cc21)Nc1nnc(-c2ccccc2)o1
  STK33 inh: 0.3

COc1ccc(NC(=O)C(=O)NCCN2CCN(C(=O)c3cccs3)CC2)cc1
  STK33 inh: -1.5

CC1CCCC(C(=O)OCc2ccccc2)N1 (configuration not stated)
  STK33 inh: -1.0

Cc1nc(NC(=O)CN(C)S(=O)(=O)c2ccc(Cl)cc2)sc1C
  STK33 inh: -0.6

CCOC(=O)COc1ccc(S(=O)(=O)NCc2ccncc2)cc1
  STK33 inh: -2.7

COc1ccc(Sc2cnn(-c3ccccc3)c(=O)c2Cl)cc1
  STK33 inh: -1.0

O=C(Nc1ccc(CN2CCOCC2)cc1)c1ccc(-c2ccc(Br)cc2)o1
  STK33 inh: 5.6

CCC(C)NC(=O)C(=O)NCc1ccncc1 (configuration not stated)
  STK33 inh: -1.8

CCOc1cc(C2CC(=O)NC(SCC)=C2C#N)ccc1O (configuration not stated)
  STK33 inh: 0.0

CC(=O)NC(Cc1ccc(F)cc1)C(=O)NC1CCN(c2nnnn2-c2ccccc2)CC1 (configuration not stated)
  STK33 inh: -3.3

COc1cc(NC(=O)[C@@H](NC(=O)N2CCn3c2nc2ccccc23)C(C)C)cc(OC)c1
  STK33 inh: 1.1

O=C(CNC(=O)c1ccc(OC(F)F)cc1)NCc1ccccn1
  STK33 inh: -1.4

O=C(Cc1cccs1)NC(Cc1c[nH]c2ccccc12)C(=O)O (configuration not stated)
  STK33 inh: -2.8

COc1cc2c(cc1NC(=O)c1cccc(S(=O)(=O)N(C)C)c1)oc1ccccc12
  STK33 inh: -1.7

Cc1ccc(C2NC(c3ccc(C)cc3)C(C)C(=NO)C2C)cc1 (configuration not stated)
  STK33 inh: -0.2

CC(C)N(Cc1ccccc1)C(=O)CN1C(=O)COc2ccc(S(=O)(=O)NC3CCCC3)cc21
  STK33 inh: 1.0

Cc1cc(C(=O)Nc2ccc(F)cc2F)on1
  STK33 inh: 0.1

CC(=O)c1cc2c(cc1NS(=O)(=O)c1cccc(C(=O)O)c1)OCO2
  STK33 inh: 0.3

Brc1ccc(-c2nc(N/N=C/c3cccnc3)c3ccccc3n2)cc1
  STK33 inh: -2.0

CCCC(=O)Nc1nc2c(s1)COc1ccccc1-2
  STK33 inh: -0.4

CCCOc1cccc(C(=O)Nc2ccc3c(c2)OCCO3)c1
  STK33 inh: -1.1

COCCCn1c(SCC(=O)N(C)C)nnc1-c1ccccc1
  STK33 inh: -1.3

O=C(O)CCC(=O)Nc1cccc(C(=O)c2ccccc2)c1
  STK33 inh: -1.4

O=c1ccc(OCCOc2ccccc2)nn1-c1ccccc1
  STK33 inh: 0.5

CCOc1ccc(N(CC(=O)N2CCN(c3ccccc3F)CC2)S(=O)(=O)c2c(C)noc2C)cc1
  STK33 inh: 2.0

O=C(N/N=C/c1cn(Cc2ccccc2)c2ccccc12)c1ccncc1
  STK33 inh: 0.2

CN=C1S/C(=C\c2ccc(N3CCOCC3)cc2C)C(=O)N1C
  STK33 inh: -0.5

O=C(Nc1nccs1)c1ccc(S(=O)(=O)N2CCCCC2)cc1
  STK33 inh: 4.6

Cc1nonc1C1CCCN1Cc1cn[nH]c1-c1ccc2c(c1)OCO2 (configuration not stated)
  STK33 inh: -0.7

Cc1cc2nc(CCl)cc(=O)n2[nH]1
  STK33 inh: -0.7

O=C(Nc1ccc(F)cc1)c1cc2cc(Cl)ccc2[nH]1
  STK33 inh: 0.2

Cc1ccc(OCC(=O)N(Cc2ccccc2)c2ccccn2)cc1
  STK33 inh: -0.2

COc1ccc(-c2csc(Nc3ncccc3C)n2)cc1
  STK33 inh: -1.0

CC(=O)Nc1ccc(NC(=O)CSc2nc(N)c(NC(=O)c3ccco3)c(=O)[nH]2)cc1
  STK33 inh: -0.9

Nc1ccc(C(=O)OCC(=O)N2CCN(C(=O)c3ccco3)CC2)cc1[N+](=O)[O-]
  STK33 inh: -1.3

CC(C)CN(C(=O)CCC(=O)OCC(=O)NCCc1ccccc1)c1c(N)n(CC(C)C)c(=O)[nH]c1=O
  STK33 inh: -2.2

COc1ccc(NC2c3ncccc3C(=O)N2Cc2cccs2)cc1 (configuration not stated)
  STK33 inh: -0.3

O=C(C1CCCN(S(=O)(=O)c2ccccc2)C1)N1CCCCCC1 (configuration not stated)
  STK33 inh: 0.3

Cc1nn(-c2ccccc2)c(C)c1NC(=O)COC(=O)Cc1ccccc1F
  STK33 inh: -0.4

CCOc1ccc(C(=O)/C=C/Nc2ccc(S(=O)(=O)N=C(N)N)cc2)cc1
  STK33 inh: -2.9

CCCc1cc2c(cc1NC(=O)c1ccc(C(C)(C)C)cc1)OCO2
  STK33 inh: -0.1

CC1CCC(C(C)C)C(OCC(O)CN2CCN(Cc3ccccc3)CC2)C1 (configuration not stated)
  STK33 inh: -0.9

COC(=O)/C=C1/C(=O)N/C(=N\c2nc(C)cc(C)n2)N1c1ccc(OC)cc1
  STK33 inh: 0.6

COc1cccc(OC)c1C(=O)Nc1ccc(CN2CCCCC2)cc1
  STK33 inh: 1.7

CCOC(=O)CC(NC(=O)c1cc2cccc(OC)c2oc1=O)c1ccc(OC)cc1 (configuration not stated)
  STK33 inh: -0.5

COc1ccccc1CNC(=O)c1c(-c2ccccc2Cl)noc1C
  STK33 inh: 0.1

Cc1cccc(OCCCC(=O)Nc2ccccc2C(F)(F)F)c1
  STK33 inh: -3.0

Cc1sc(N)nc1C12CC3CC(CC(C3)C1)C2
  STK33 inh: -1.9

FC(F)(F)c1cccc(NC(=S)N2CCN(c3ccccc3)CC2)c1
  STK33 inh: -0.2

Cc1ccc(CNC(=O)c2ccccc2NC(=O)CN2CCN(C)CC2)cc1
  STK33 inh: -0.5

CC(C)c1ccc(-c2nn(-c3ccccc3)cc2C(=O)NCC2CCCO2)cc1 (configuration not stated)
  STK33 inh: -0.1

Cc1cc(C)nc(SCc2cc(=O)c(OC(=O)c3ccc(S(=O)(=O)N(C)C)cc3)co2)n1
  STK33 inh: -1.7

Cc1nc(NC(N)=S)sc1C(=O)Nc1ccccc1
  STK33 inh: 0.1

COc1ccc(/C=N/NC(=O)CNC(=O)/C=C/c2ccccc2OC)cc1
  STK33 inh: -0.1

CCOc1cc(NC(=O)c2ccccn2)c(OCC)cc1NC(=O)c1cccc(C)c1
  STK33 inh: -1.4

COc1ccc(CCC(=O)OCC(=O)Nc2c(C)nn(-c3ccccc3)c2C)cc1
  STK33 inh: -1.5

COC(=O)c1c(NC(=O)c2ccccc2)sc(C(=O)c2ccccc2)c1C
  STK33 inh: -1.5

CCc1ccc(CN(C)Cc2nc(Cc3cccc(C(F)(F)F)c3)no2)nc1
  STK33 inh: 0.1

O=C(NCC(=O)N1CCN(c2ccccc2O)CC1)c1ccc(Br)o1
  STK33 inh: 0.7

COC(=O)c1ccc(C(=O)N=c2sccn2C)cc1
  STK33 inh: 0.4

CCCc1nc2nc(C)c(NS(=O)(=O)c3ccc4c(c3)CCCC4)c(=O)n2[nH]1
  STK33 inh: -0.1

CCCOCCOC(=O)C1=C(C)NC(=O)NC1c1cc(Cl)c(O)c(OC)c1 (configuration not stated)
  STK33 inh: 1.3

CCOc1ccc(S(=O)(=O)N2CCOCC2)cc1NC(=O)C1CSC2(C)CCC(=O)N12 (configuration not stated)
  STK33 inh: -1.5

CC(Oc1cc2oc(=O)c3c(c2cc1Cl)CCCC3)C(=O)NCc1ccncc1 (configuration not stated)
  STK33 inh: -0.2

Among those listed so far, 4 have a cyano group:
N#Cc1ccccc1Oc1ccccc1C=O
  STK33 inh: -0.8

CCOc1ccccc1NC(=O)C(OC(=O)c1ccc(NC(=O)CC#N)cc1)c1ccccc1 (configuration not stated)
  STK33 inh: 0.0

CC(=O)C1(C)OC(N)=C(C#N)C(c2ccccc2)C1(C#N)C#N (configuration not stated)
  STK33 inh: 2.0

CCOc1cc(C2CC(=O)NC(SCC)=C2C#N)ccc1O (configuration not stated)
  STK33 inh: 0.0

(cont.)
NS(=O)(=O)c1cccc(NC(=S)NC(=O)c2cccc([N+](=O)[O-])c2)c1
  STK33 inh: 0.1

Cc1ccc(-c2ccc(/C=N/NC(=O)CN3CCOCC3)o2)cc1[N+](=O)[O-]
  STK33 inh: 0.1

CC1CC1C(=O)OCC(=O)Nc1cccc([N+](=O)[O-])c1 (configuration not stated)
  STK33 inh: -0.7

O=C(NCCNC(=O)c1ccc(Br)o1)c1ccc(Br)o1
  STK33 inh: -0.5

COC(=O)c1ccc(C(=O)Nc2ccc(C(C)C)cc2N)cc1
  STK33 inh: -0.1

COc1ccc(C(=O)Nc2ccccc2C(=O)O)cc1NC(=O)C(c1ccccc1)c1ccccc1
  STK33 inh: 3.0

CCOc1ccccc1N1CCN(S(=O)(=O)CC)CC1
  STK33 inh: 1.0

Cc1ccc(C(=O)COC(=O)C2CC3CCCC(C2)C3=O)cc1[N+](=O)[O-] (configuration not stated)
  STK33 inh: -1.1

Three entries from above, sorted by count of non-hydrogen atoms, lowest first:
CC1CC1C(=O)OCC(=O)Nc1cccc([N+](=O)[O-])c1 (configuration not stated)
  STK33 inh: -0.7

Cc1ccc(C(=O)COC(=O)C2CC3CCCC(C2)C3=O)cc1[N+](=O)[O-] (configuration not stated)
  STK33 inh: -1.1

Cc1ccc(-c2ccc(/C=N/NC(=O)CN3CCOCC3)o2)cc1[N+](=O)[O-]
  STK33 inh: 0.1
